Bioassay records (PubChem)
NOMO-1 viab: NOMO-1 AML cell viability reduction, primary screen, STK33 inhibitor project, CellTiter-Glo luminescence. AID 2330, 2010. NOMO-1 AML viability, 72 h. inhibition, % (test concentration not listed). actives 7.5% (n = 37,000);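 active = most replicates above 80%; inconclusive = exactly half above 80%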;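 also: wells of about 30 µL received 25 nL stock; 0% = median of vehicle wells and 100% = reference inhibitor level; the first replicate is given; inactives centre near 10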
Numbers without * were called inactive; ? = inconclusive.

SMILES | NOMO-1 viab
NNC(=O)Cn1nnc(N2CCCC2)n1 | -7
C[C@@H]1CN([C@@H](C)CO)C(=O)c2cc(NC(=O)Nc3ccc(F)cc3)ccc2O[C@H]1CN(C)S(=O)(=O)c1cccs1 | 27
C[C@@H]1CN([C@H](C)CO)C(=O)c2cc(NC(=O)c3ccncc3)ccc2O[C@H]1CN(C)S(=O)(=O)c1cn(C)cn1 | -26
O=C(CCCOc1ccc(Cl)cc1Cl)Nc1ccc2c(c1)C(=O)NC2=O | 27
C[C@@H]1CN([C@H](C)CO)C(=O)c2cccc(NC(=O)c3nc4ccccc4s3)c2O[C@H]1CN(C)C | 25
Nc1c(C(=O)c2ccc(Cl)cc2)oc2nc(-c3ccco3)cc(-c3cccs3)c12 | 20
C[C@H]1CN([C@@H](C)CO)C(=O)c2cccc(NC(=O)c3nc4ccccc4s3)c2O[C@@H]1CN(C)CC1CCCCC1 | ?
C[C@@H]1CN([C@@H](C)CO)C(=O)c2cccc(NC(=O)CCCCCC(=O)Nc3ccccc3N)c2O[C@@H]1CN(C)C(=O)Nc1ccc2c(c1)OCO2 | 31
O=C(CSc1nnc(-c2ccccc2O)n1-c1ccccc1)Nc1ccc2c(c1)OCCO2 | -18
C[C@H]1CN([C@@H](C)CO)C(=O)c2cc(NC(=O)Nc3ccc(C(F)(F)F)cc3)ccc2O[C@H]1CN(C)Cc1ccc(-c2ccccc2)cc1 | 117*
COc1ccccc1-c1coc2cc(O)ccc2c1=O | 11
O=C(OC1C(c2c(O)cc(O)c(C(=O)c3ccc(O)cc3)c2O)OC(CO)C(O)C1O)c1cc(O)c(O)c(O)c1 (stereo unspecified) | 4
C[C@@H]1CCCCO[C@@H](CN(C)C(=O)c2ccncc2)[C@@H](C)CN([C@H](C)CO)C(=O)c2cc(NS(=O)(=O)c3ccc(F)cc3)ccc2O1 | 1
Cc1ccc(S(=O)(=O)N(C)C[C@H]2Oc3ccc(NC(=O)Cc4ccccc4)cc3CC(=O)N([C@@H](C)CO)C[C@H]2C)cc1 | 20
C[C@@H]1CN([C@H](C)CO)C(=O)c2cc(NC(=O)CCC(F)(F)F)ccc2O[C@H]1CN(C)C(=O)Nc1cccc2ccccc12 | -5
Cc1noc(C)c1NC(=O)N(C)C[C@H]1Oc2ccc(NC(=O)C3CC3)cc2CC(=O)N([C@@H](C)CO)C[C@H]1C | 27
Cc1ccc(S(=O)(=O)Nc2ccc3c(c2)C(=O)N([C@H](C)CO)C[C@@H](C)[C@H](CN(C)S(C)(=O)=O)O3)cc1 | -13
C[C@@H]1CN([C@H](C)CO)C(=O)Cc2cc(NC(=O)C3CCCCC3)ccc2O[C@H]1CN(C)S(=O)(=O)c1cn(C)cn1 | -7
COc1ccc(NC(=O)Nc2ccc3c(c2)C(=O)N([C@@H](C)CO)C[C@H](C)[C@H](CN(C)Cc2ccc(C(=O)Nc4ccccc4N)cc2)O3)cc1 | 50
C[C@H]1CN([C@@H](C)CO)C(=O)Cc2cc(NS(=O)(=O)c3cccs3)ccc2O[C@@H]1CN(C)Cc1ccc(-c2ccccc2)cc1 | 89*
CCSc1ncc(Cl)c(C(=O)Nc2nnc(SCc3ccccc3F)s2)n1 | 14
C[C@H]1CN([C@@H](C)CO)C(=O)c2cc(NC(=O)Nc3ccccc3)ccc2O[C@H]1CN(C)Cc1ccc(Oc2ccccc2)cc1 | 15
C[C@@H]1CN([C@H](C)CO)C(=O)c2cc(NC(=O)Nc3ccc(F)cc3)ccc2O[C@@H]1CN(C)CC1CCCCC1 | 12
CCCc1cc2c(-c3ccccc3)cc(=O)oc2cc1OCc1ccc(C(=O)O)o1 | 7
C[C@H]1CN([C@@H](C)CO)C(=O)c2cccc(NC(=O)NC3CCCCC3)c2O[C@H]1CN(C)Cc1ccccc1 | 13

The final 5 compounds of the section before open the next one:
SMILES | NOMO-1 viab
CCSc1ncc(Cl)c(C(=O)Nc2nnc(SCc3ccccc3F)s2)n1 | 14
C[C@H]1CN([C@@H](C)CO)C(=O)c2cc(NC(=O)Nc3ccccc3)ccc2O[C@H]1CN(C)Cc1ccc(Oc2ccccc2)cc1 | 15
C[C@@H]1CN([C@H](C)CO)C(=O)c2cc(NC(=O)Nc3ccc(F)cc3)ccc2O[C@@H]1CN(C)CC1CCCCC1 | 12
CCCc1cc2c(-c3ccccc3)cc(=O)oc2cc1OCc1ccc(C(=O)O)o1 | 7
C[C@H]1CN([C@@H](C)CO)C(=O)c2cccc(NC(=O)NC3CCCCC3)c2O[C@H]1CN(C)Cc1ccccc1 | 13
C[C@H]1CN([C@@H](C)CO)C(=O)Cc2cc(NC(=O)Nc3ccc(F)cc3)ccc2O[C@@H]1CN(C)Cc1ccc(C(F)(F)F)cc1 | 117*
C[C@@H]1CN([C@@H](C)CO)C(=O)c2cc(NC(=O)C3CCCCC3)ccc2O[C@@H]1CN(C)Cc1ccc(C(=O)Nc2ccccc2N)cc1 | 109*
CN1C(=O)[C@@]2(Cc3ccccc3)SSS[C@]1(CO)C(=O)N2C | 108*
Cc1noc(C)c1S(=O)(=O)N(C)C[C@H]1OCCCC[C@@H](C)Oc2ccc(NS(=O)(=O)c3ccc(F)cc3)cc2C(=O)N([C@H](C)CO)C[C@@H]1C | 35
Cc1noc(C)c1NC(=O)Nc1ccc2c(c1)C(=O)N([C@H](C)CO)C[C@@H](C)[C@H](CN(C)C)O2 | 16
C[C@H](CO)N1C[C@H](C)[C@@H](CN(C)Cc2ccc3c(c2)OCO3)Oc2ccc(NC(=O)Cc3ccccc3)cc2C1=O | 11
O=C(Nc1ccccc1C(=O)NCC1CCCO1)c1ccco1 (stereo unspecified) | 17
C[C@H]1CN([C@@H](C)CO)C(=O)Cc2cc(NS(C)(=O)=O)ccc2O[C@@H]1CN(C)Cc1ccc(Cl)c(Cl)c1 | 98*
Cc1cc(C)c(OCC(=O)Nc2ccccc2C#N)c(Br)c1 | 33
Cc1cc(C(=O)O)ccc1NC(=O)CCCC(=O)O | 2
COC(=O)c1ccccc1NC(=O)CSc1nccc(C)n1 | 7
Cc1ccc2nsnc2c1S(=O)(=O)NCc1ccncc1 | 15
Cc1ccc([N+](=O)[O-])cc1N(CC(=O)Nc1ccc(F)cc1F)S(C)(=O)=O | -1
CC(C)NC(=O)N(C)C[C@H]1Oc2ccc(NS(C)(=O)=O)cc2CC(=O)N([C@@H](C)CO)C[C@H]1C | 1
CCOC(=O)Nc1cc(=O)c2ccccc2o1 | 119*
C[C@@H]1CCCCO[C@@H](CN(C)C)[C@@H](C)CN([C@H](C)CO)C(=O)c2cc(NS(C)(=O)=O)ccc2O1 | 0
Cc1c(Cl)cccc1NC(=O)Cn1cc(C(=O)c2cccs2)c2ccccc21 | 88*
C[C@H]1CN([C@@H](C)CO)C(=O)Cc2cc(NC(=O)Cc3ccccc3)ccc2O[C@H]1CN(C)C(=O)Nc1ccc2c(c1)OCO2 | -13
C[C@H]1CN([C@@H](C)CO)C(=O)Cc2cc(NS(=O)(=O)c3ccccc3)ccc2O[C@H]1CN(C)Cc1ccncc1 | -10
Cn1cnnc1SCc1nc2ccc([N+](=O)[O-])cc2[nH]1 | 19
C[C@@H]1CN([C@H](C)CO)C(=O)Cc2cc(NS(=O)(=O)c3ccccc3)ccc2O[C@@H]1CN(C)Cc1ccc(Oc2ccccc2)cc1 | ?
CCOC(=O)CN1C(=O)C(O)(c2c[nH]c3ccccc23)c2ccccc21 (stereo unspecified) | -4
C[C@@H]1CN([C@H](C)CO)C(=O)c2cccc(NC(=O)C3CCCCC3)c2O[C@@H]1CN(C)Cc1ccc(C(=O)O)cc1 | -21
COc1ccc2[nH]cc(CCNC(=O)Nc3ccccc3)c2c1 | 28
C[C@H]1CN([C@@H](C)CO)C(=O)Cc2cc(NS(=O)(=O)c3ccc(F)cc3)ccc2O[C@H]1CN(C)C(=O)Nc1ccccc1 | 20
(further entries)
SMILES | NOMO-1 viab
C[C@@H]1CN([C@@H](C)CO)C(=O)c2cccc(NS(=O)(=O)c3cn(C)cn3)c2O[C@H]1CN(C)Cc1ccncc1 | 7
C[C@@H]1CCCCO[C@H](CN(C)C(=O)NC2CCCCC2)[C@@H](C)CN([C@H](C)CO)C(=O)c2cc(NS(C)(=O)=O)ccc2O1 | 23
C[C@@H]1CN([C@H](C)CO)C(=O)c2cccc(NS(=O)(=O)c3ccc(F)cc3)c2O[C@@H]1CN(C)C | 6
Cc1noc(C)c1S(=O)(=O)Nc1ccc2c(c1)C(=O)N([C@@H](C)CO)C[C@@H](C)[C@@H](CN(C)C(=O)NC(C)C)O2 | 14
Cc1cc(I)cnc1NC(=S)NC(=O)c1ccco1 | 19
C[C@@H]1CN([C@@H](C)CO)C(=O)c2cc(NC(=O)CCCN(C)C)ccc2O[C@H]1CN(C)C(=O)Nc1cccc2ccccc12 | -5
C[C@@H]1CN([C@H](C)CO)C(=O)Cc2cc(NC(=O)c3ccncc3)ccc2O[C@H]1CN(C)C(=O)Nc1ccc2c(c1)OCO2 | 3
COc1ccc(N=C(C)c2c(C(F)(F)F)[nH]n(-c3nc4ccccc4s3)c2=O)cc1OC | 58
CS(=O)(=O)N(CC(=O)Nc1ccccc1Sc1ccccc1)c1cccc(C(F)(F)F)c1 | 23
O=C(CSc1nccc(=O)[nH]1)Nc1cccc(Br)c1 | 6
Cc1noc(C)c1S(=O)(=O)Nc1ccc2c(c1)C(=O)N([C@@H](C)CO)C[C@@H](C)[C@H](CN(C)C)O2 | 22
CNC[C@@H]1Oc2ccc(NC(=O)NC3CCCCC3)cc2C(=O)N([C@H](C)CO)C[C@@H]1C | 10
CNc1cc2ncnc(Nc3cccc(Br)c3)c2cc1N | 97*
C[C@@H]1CC[C@]2(C(=O)O)CC[C@]3(C)C(=CCC4[C@@]5(C)CC[C@H](O)[C@](C)(C(=O)O)C5CC[C@]43C)C2[C@]1(C)O (stereo partly specified) | 29
Cc1noc(C)c1S(=O)(=O)Nc1ccc2c(c1)CC(=O)N([C@H](C)CO)C[C@H](C)[C@H](CN(C)S(C)(=O)=O)O2 | 8
C[C@H](CO)N1C[C@H](C)[C@H](CN(C)S(=O)(=O)c2ccc(Cl)cc2)Oc2ccc(NC(=O)Nc3ccc4c(c3)OCO4)cc2C1=O | 30
c1ccc(OCc2nc3c4c5c(sc4ncn3n2)CCCC5)cc1 | 31
C[C@@H]1CN([C@@H](C)CO)C(=O)Cc2cc(NC(=O)c3ccncc3)ccc2O[C@@H]1CN(C)Cc1ccc(-c2ccccc2)cc1 | 35
COC(=O)c1c(NC(=O)CC2Nc3cccc4cccc(c34)NC2=O)sc2c1CCCC2 (stereo unspecified) | 24
CCn1c(SCC(=O)Nc2ccc(Br)c(Cl)c2)nnc1-c1ccc(Cl)cc1 | 22
C[C@H](CO)N1C[C@H](C)[C@H](CN(C)Cc2ccncc2)Oc2ccc(NC(=O)Nc3ccc(C(F)(F)F)cc3)cc2C1=O | 86*
CNC[C@H]1Oc2ccc(NC(=O)Nc3ccccc3)cc2C(=O)N([C@@H](C)CO)C[C@@H]1C | -15
C[C@H](CO)N1C[C@H](C)[C@@H](CN(C)S(C)(=O)=O)Oc2ccc(NC(=O)CCN3CCOCC3)cc2C1=O | -17
C[C@@H]1CN([C@@H](C)CO)C(=O)c2cccc(N(C)C)c2O[C@H]1CN(C)Cc1ccc2c(c1)OCO2 | 8
CCOC(=O)c1cc(CC)sc1N1C(=O)CC(Sc2ncccc2C(=O)O)C1=O (stereo unspecified) | 21
Further records.
SMILES | NOMO-1 viab
C[C@@H]1CN([C@H](C)CO)C(=O)c2cccc(NC(=O)c3ccncc3)c2O[C@H]1CN(C)Cc1ccc(Oc2ccccc2)cc1 | 91*
Cc1c(Cl)cccc1NC(=O)CSC1CC(=O)N(c2ccccc2)C1=O (stereo unspecified) | 26
C[C@H](CO)N1C[C@H](C)[C@H](CN(C)Cc2ccncc2)Oc2c(NC(=O)c3ccncc3)cccc2C1=O | 15
COc1ccc(S(=O)(=O)Nc2cccc3c2O[C@H](CN(C)S(C)(=O)=O)[C@H](C)CN([C@H](C)CO)C3=O)cc1 | 15
C[C@@H]1CCCCO[C@@H](CN(C)Cc2ccccc2)[C@@H](C)CN([C@H](C)CO)C(=O)c2cc(NC(=O)c3ccccc3)ccc2O1 | 33
CCOC(=O)c1c(NC(=O)CSc2nnc(C)s2)sc(C)c1C | 9
C[C@H](CO)N1C[C@H](C)[C@@H](CN(C)Cc2ccncc2)Oc2c(NC(=O)c3nc4ccccc4s3)cccc2C1=O | 74
O=C(CSc1nnc(-c2ccncc2)n1-c1ccccc1)Nc1ccnc2ccccc12 | 29
Cc1ccc(S(=O)(=O)Nc2ccc3c(c2)CC(=O)N([C@@H](C)CO)C[C@H](C)[C@H](CN(C)Cc2ccc(Oc4ccccc4)cc2)O3)cc1 | 120*
O=c1onc(-c2ccccc2)n1-c1cccc(C(F)(F)F)c1 | 8
COc1cc(Cc2cc(OC)c(C)cc2OC)c(OC)cc1C | 9
C[C@H](CO)N1C[C@H](C)[C@H](CN(C)Cc2ccc(Cl)c(Cl)c2)Oc2c(NC(=O)c3nc4ccccc4s3)cccc2C1=O | 104*
C[C@@H]1CN([C@@H](C)CO)C(=O)c2cccc(NS(=O)(=O)c3cccs3)c2O[C@H]1CN(C)S(=O)(=O)c1ccccc1 | 2

Reformatted in markdown: part of the list above
| SMILES | NOMO-1 viab |
| --- | --- |
| Cc1ccc([N+](=O)[O-])cc1N(CC(=O)Nc1ccc(F)cc1F)S(C)(=O)=O | -1 |
| CC(C)NC(=O)N(C)C[C@H]1Oc2ccc(NS(C)(=O)=O)cc2CC(=O)N([C@@H](C)CO)C[C@H]1C | 1 |
| CCOC(=O)Nc1cc(=O)c2ccccc2o1 | 119* |
| C[C@@H]1CCCCO[C@@H](CN(C)C)[C@@H](C)CN([C@H](C)CO)C(=O)c2cc(NS(C)(=O)=O)ccc2O1 | 0 |
| Cc1c(Cl)cccc1NC(=O)Cn1cc(C(=O)c2cccs2)c2ccccc21 | 88* |
| C[C@H]1CN([C@@H](C)CO)C(=O)Cc2cc(NC(=O)Cc3ccccc3)ccc2O[C@H]1CN(C)C(=O)Nc1ccc2c(c1)OCO2 | -13 |
| C[C@H]1CN([C@@H](C)CO)C(=O)Cc2cc(NS(=O)(=O)c3ccccc3)ccc2O[C@H]1CN(C)Cc1ccncc1 | -10 |

Only part of the results is shown (hit frequency here may not be typical).
